From PubChem
Choline anaer gr – inhibitors of anaerobic choline-dependent gram-negative bacterial growth; calls only; 55,000 compounds, 0.2% hits; Gram-negative bacterium anaerobic choline minimal medium, absorbance growth; hits give low values; many inactives read as strong as hits in the columns shown;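 active means growth z-score on choline under -2 at 7 or 20 h with little or no fall on glycerol, limits in tiers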;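 further: stock transfer was 300 nL into about 50 µL; the organism is E. coli; final concentration not given here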
Choline anaer gr early – further read-out of Choline anaer gr, marked with its call; z-score; measured here: choline growth z-score, timepoint 1;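 score of optical density at 7 h as mean of two plates; lower means less growth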
* = called active by the depositor; i = inactive; + = active, no number; & = joins results of further samples. Some of the compounds tested. The share of hits here may be higher or lower than overall.

The first 2 compounds, ahead of the listing:
compound | Choline anaer gr early | Choline anaer gr
CCOCCOC(=O)c1ccc2c(c1)N(Cc1ccccc1)C(=O)c1ccccc1S2 | 1.2 | i
O=S(=O)(NC1CCCCC1)c1cc(-c2nnc(C3CC3)o2)cs1 | 0.38 | i

Results (from the top)
compound | Choline anaer gr early | Choline anaer gr
CCOCCOC(=O)c1ccc2c(c1)N(Cc1ccccc1)C(=O)c1ccccc1S2 | 1.2 | i
O=S(=O)(NC1CCCCC1)c1cc(-c2nnc(C3CC3)o2)cs1 | 0.38 | i
NS(=O)(=O)c1ccc(NC(=O)c2ccc3noc(-c4ccccc4)c3c2)cc1 | 0.84 | i
COC(=O)c1ccccc1NC(=O)C1Cc2cc(S(=O)(=O)N3CCCCC3)ccc2N1C(C)=O (stereo not given) | 0.23 | i
CCC1CCC(C(=O)NC(C(=O)Nc2ccc(OC)cc2)C(C)C)CC1 (stereo not given) | 0.25 | i
O=c1[nH]cc(S(=O)(=O)N2CCCCC2)c(=O)[nH]1 | 0.49 | i
Cc1cc(C)c(NS(=O)(=O)c2c(C)cc(N3C(=O)CCS3(=O)=O)cc2C)c(C)c1 | -0.35 | i
NS(=O)(=O)c1ccc(CCNC(=O)Cn2c(=O)c3cccn3c3ccc(F)cc32)cc1 | 0.2 | i
O=S(=O)(NCCc1n[nH]c(Cc2ccc(F)cc2)n1)c1ccc(F)cc1 | -1.4 | i
CCC(=O)Nc1nc2cc(NC(=O)Nc3cccc(OC)c3)ccc2s1 | -0.53 | i
O=C(C1CCCCC1)N1CC(OCc2ccc(F)cc2Cl)C1 | 0.02 | i
Cc1cc2n(n1)CCCN2Cc1ccc(C(=O)NC2CCCC2)cc1 | -0.64 | i
Cc1ccc(NC(=O)c2ccnc(Nc3ccc(F)c(F)c3)c2)cc1 | -0.87 | i
Cc1ccc(CC(=O)Nc2c(C)nc3sccn3c2=O)cc1 | -1.7 | i
Cn1c(=O)c2c(C3C(=O)Nc4ccccc43)c(-c3ccc(-c4ccccc4)cc3)[nH]c2n(C)c1=O (stereo not given) | 2.7 | i
O=C(O)C1CCN(C2CC(=O)N(c3cccc(Cl)c3)C2=O)CC1 (stereo not given) | -1.7 | i
Cc1nn(-c2ccccc2)c2sc(C(=O)OCCN(C)c3nsnc3Cl)cc12 | 1.5 | i
CC(C)c1cc(C2CCCN2C(=O)c2cnn3cc(Br)cnc23)on1 (stereo not given) | -0.25 | i
CC1(C)OC2C[C@H]3[C@@H]4CCC5=CC(=O)CC[C@]5(C)[C@]4(F)C(O)C[C@]3(C)[C@@]2(C(=O)CCl)O1 (stereo not given in full) | 0.21 | i
COCCNC(=O)COc1ccc(-c2noc(-c3ccccc3)n2)cc1OC | 0.42 | i
C#C[C@]1(O)CCC2C3CCc4cc(O)ccc4C3CC[C@@]21C (stereo not given in full) | 0.58 | i
Cc1c(CN2CCCC(C)C2)nnn1-c1ccc(F)cc1 (stereo not given) | -0.42 | i
O=C(NCC1CCCO1)c1cccc(NC(=O)c2nsc3ccccc23)c1 (stereo not given) | -1.5 | i
O=C(NCc1ccc(Cl)cc1)C1CCCN(c2ccncc2)C1 (stereo not given) | -1.5 | i
Cn1nc(C(=O)N2CCCC(C(=O)NC3CC3)C2)c2c1CCN(C(=O)c1ccc(C(C)(C)C)cc1)C2 (stereo not given) | -0.47 | i

Part of the list above in order of formula weight, largest number first.
compound | Choline anaer gr early | Choline anaer gr
CCOCCOC(=O)c1ccc2c(c1)N(Cc1ccccc1)C(=O)c1ccccc1S2 | 1.2 | i
O=S(=O)(NCCc1n[nH]c(Cc2ccc(F)cc2)n1)c1ccc(F)cc1 | -1.4 | i
Cc1ccc(NC(=O)c2ccnc(Nc3ccc(F)c(F)c3)c2)cc1 | -0.87 | i
Cc1cc2n(n1)CCCN2Cc1ccc(C(=O)NC2CCCC2)cc1 | -0.64 | i
O=C(NCc1ccc(Cl)cc1)C1CCCN(c2ccncc2)C1 (stereo not given) | -1.5 | i

Additional entries.
compound | Choline anaer gr early | Choline anaer gr
CCOc1ccc(S(=O)(=O)N2CCCC2C(=O)Nc2nnc(CC)s2)cc1 (stereo not given) | -0.83 | i
O=C(c1cc(F)cc(F)c1)N1CCC(c2nc(-c3ccc(S(=O)(=O)N4CCCC4)cc3)no2)CC1 | 0.03 | i
Cc1ccccc1Nc1c(-c2cccc(Cl)c2)nc2ncccn12 | 0.97 | i
O=S(=O)(c1ccccc1)c1ccc(N2CCN(c3ccccn3)CC2)nn1 | 0.31 | i
CCN(CC)CCNC(=O)C(Cc1ccccc1)N1Cc2ccccc2C1=O (stereo not given) | 0.19 | i
CCCn1c(CN2CCOCC2)nc2cc(NC(=O)C3CCCCC3)ccc21 | -2.8 | i
O=S(=O)(c1ccc2c(c1)CCCC2)N1CCC(n2cnc3cccnc32)CC1 | 0.04 | i
Cc1ccccc1NS(=O)(=O)c1cn(C)cn1 | -1.4 | i
O=S(=O)(c1cc(F)ccc1F)N1CCN(c2ncnc3c2nnn3-c2ccccc2)CC1 | -0.44 | i
COc1ccc(NC(=O)c2nnc(C3CCN(S(=O)(=O)c4ccc(C)cc4C)CC3)s2)cc1 | -0.18 | i
C=CCn1c(=O)c(C(=O)Nc2nccc(C)n2)c(O)c2ccccc21 | -0.27 | i
CC(C)c1ccc(-c2nc(C(N)=O)c3c(n2)n(-c2ccc(F)cc2)c(=O)n3C)cc1 | 0.59 | i
Cc1ncc(COC(=O)C(C)C)c2cc(C(=O)Nc3ccc(OCc4ccccc4)cc3)c(=O)oc12 | 0.89 | i
Cc1nnc(NC(=O)CSc2nnc3ccc(-c4cccnc4)nn23)s1 | 0.15 | i
O=S(=O)(c1ccccc1)c1nnn2c1nc(N1CCOCC1)c1ccccc12 | 0.9 | i
CC(C)C(=O)Nc1cccc(-c2ccc3cc(C(C)C)ccc3n2)c1 | 0.8 | i
CC1OC(OCC2OC(Oc3c(-c4ccc(O)c(O)c4)oc4cc(O)cc(O)c4c3=O)C(O)C(O)C2O)C(O)C(O)C1O (stereo not given) | 0.62&-0.74 | i
COc1ccccc1NC(=O)NCc1c(-n2cccc2)sc2c1CCN(C)C2 | -1.3 | i
Cc1cccc(N2CCN(c3cc(C(=O)O)c4cc(NS(=O)(=O)c5ccc(F)cc5)ccc4n3)CC2)c1C | 0.49 | i
COc1ccc(NC(=O)Nc2nnc(SCc3cc(=O)n4oc(C)cc4n3)s2)cc1 | -0.42 | i
CC1CCc2noc(NC(=O)c3ccc(Br)cc3)c2C1 (stereo not given) | -0.29 | i
O=C1CC(c2ccc(Cl)cc2)=Nc2ccccc2N1 | 1.6 | i
Cc1ccccc1C(=O)NCCc1csc2nc(-c3ccccc3C)nn12 | -0.63 | i
Cc1cccc(-c2nc3sc(N(C)CC(=O)NCCc4c[nH]c5ccccc45)nn3c2NC(C)(C)C)c1 | 0.45 | i
CCc1nnc2c(Nc3ccccc3OC)nc3ccccc3n12 | 1.6 | i

Further records follow:
compound | Choline anaer gr early | Choline anaer gr
Cc1ccc(S(=O)(=O)N2CCc3cc4cccc(C)c4nc32)cc1 | -0.07 | i
Cn1cc2nc(SCC(=O)Nc3ccc(Cl)cc3F)n(CC3CC3)c(=O)c2n1 | 0.95 | i
Cn1c(SCC(=O)N2CCN(c3ccccc3F)CC2)nc2cc(-c3ccccc3)sc2c1=O | -1 | i
COc1cccc(NC(=O)Cn2nc(-c3ccccc3)c3cc(Cl)ccc32)c1 | 0.27 | i
O=[N+]([O-])c1cccc2c[nH]nc12 | 0.45 | i
CC(=O)OCC(=O)NCCCOc1cccc(CN2CCCCC2)c1 | 0.03&0.25&0.32&0.47&0.05 | i
CCOc1ccc(NC(=O)Nc2ccc(SCc3nnc(-c4ccccc4)o3)cc2)cc1 | -0.21 | i
O=C(O)CCC/C=C\C[C@H]1C(=O)C[C@@H](O)[C@@H]1/C=C/[C@@H](O)Cc1ccccc1 | 1.1 | i
N[C@@H](Cc1ccc(O)c(O)c1)C(=O)O | 0.38&-0.77&0.55 | i
Cn1nccc1C(=O)N1CCC(c2nc(-c3ccc(F)cc3)no2)CC1 | -0.51 | i
Cc1c(-c2cc(C(=O)NC3CC3)c3ccccc3n2)cnn1-c1ccc(C(C)C)cc1 | 0.9 | i
c1ccc(CC2CCN(c3nnc(Cc4ccncc4)c4ccccc34)CC2)cc1 | 1.7 | i
COC(=O)c1ccc(-n2c(CCC(=O)O)ccc2-c2ccccc2)cc1 | -1.2 | i
Cn1c(=O)c(C(=O)Nc2ccccc2)cc2cccnc21 | 0.52 | i
CCCS(=O)(=O)c1nc2ccc(NS(=O)(=O)Cc3cc(F)cc(F)c3)cc2s1 | 0.13 | i
CCc1ccc(NC(=O)NCCn2c(-c3ccc(F)cc3)nc3cccnc32)cc1 | -0.73 | i
COc1ccc(NC(=O)CCS(=O)(=O)c2ccc3c(c2)CCN3C(C)=O)c(OC)c1 | 0.43 | i
CCOC(=O)c1cc(S(=O)(=O)N(C)CC(=O)NC2CCCC2)cn1C | -0.48 | i
CC(C)c1ccc(NC(=O)Cn2nc3c4sc(N(C)C)nc4ncn3c2=O)cc1 | 0.61 | i
Cc1cccc(C#Cc2ccccc2)n1 | -1.1&0.24&0.03 | i
CCC(C)NC(=O)CSC1=Nc2cc(C)c(C)cc2N=C(c2cccc(OC)c2)C1 (stereo not given) | 1.3 | i
Cc1ccc(NC(=O)c2cccc(NC3=NC4CS(=O)(=O)CC4S3)c2)cc1 (stereo not given) | 1 | i
Cn1c(=O)n(CC(=O)N2CCCC2)c(=O)c2cc(S(=O)(=O)N3CCCC3)ccc21 | 0.71 | i
COc1ccccc1-c1cc(C(=O)N2CCCC2c2ccc(Cl)cc2)no1 (stereo not given) | 0.84 | i
Cc1ccc(CNC(=O)CCS(=O)(=O)c2cc3c(cc2C)NC(=O)CO3)cc1 | 0.66 | i

Exported with the structure last: two of the compounds above
Choline anaer gr early	Choline anaer gr	Compound
1.7	i	c1ccc(CC2CCN(c3nnc(Cc4ccncc4)c4ccccc34)CC2)cc1
-1.2	i	COC(=O)c1ccc(-n2c(CCC(=O)O)ccc2-c2ccccc2)cc1

Next section.
compound | Choline anaer gr early | Choline anaer gr
CC(C)c1cc(C(=O)Nc2cccc(Br)c2)nn1C1CCS(=O)(=O)C1 (stereo not given) | 0.43 | i
O=C1C(=O)N(C2CCN(S(=O)(=O)c3cccc4nsnc34)CC2)CCN1Cc1ccccc1 | 0.25 | i
CCc1cc(C(=O)N2CCCc3ccccc32)no1 | -0.61 | i
Cc1cc(C(=O)N2CCCC2c2cc(C(C)C)on2)no1 (stereo not given) | -0.31 | i
Nc1cccc(-c2cn3ccsc3n2)c1 | -1.3 | i
Cn1c(-c2nnc(SCC(=O)NC(C)(C)C)o2)cc2ccccc21 | -1.5 | i
CCc1ccc(NC(=O)N(CC)c2nc(-c3ccc(Br)cc3)cs2)cc1 | -0.41 | i
CCCC(=O)N1CCCC1C(=O)N1CCCCC1C (stereo not given) | -2.3* | +
NS(=O)(=O)c1ccc(CCNC(=O)CC2=NS(=O)(=O)c3ccccc3N2)cc1 | -0.15 | i
CC(C)c1ccc(NC(=O)CN2C(=O)C3CCCCN3c3ccc(C(=O)N4CCOCC4)cc32)cc1 (stereo not given) | 0.65 | i
CC(C)Cc1cc(-c2nn3c(C4CCCCC4)nnc3s2)n[nH]1 | 0.05 | i
Cc1oc(-c2ccc(OC(C)C)cc2)nc1CSc1nc2c(c(=O)[nH]1)CCCC2 | 0.71 | i
O=C(Nc1cccc(Br)c1)Nc1ccc(F)c(-c2nnc(-c3ccccc3)o2)c1 | -0.04 | i
CCc1cc(C2CCCN2Cc2cn[nH]c2-c2cccc(Br)c2)on1 (stereo not given) | 0.39 | i
CCCCNC(=O)CN1CCN(c2ccc(C(=O)O)cc2NC(=O)c2ccccc2Cl)CC1 | -0.3 | i
O=S1(=O)N=C(SCc2ccccc2)Nc2ccc(F)cc21 | 1.2 | i
CCCCN(CC)c1ncc(C(=O)O)cc1NS(=O)(=O)c1cc(C)c(C)cc1C | -0.3 | i
CN(C)CCOC(c1ccccc1)c1ccccc1 | 0.33&0.89&-0.92&0.48 | i
CCOC(=O)c1cn[nH]c1S(=O)(=O)N1CCC(C(N)=O)CC1 | -0.27 | i
Cc1cc(N2CCCC2)n2nc(CN3CCN(C)CC3)nc2n1 | -1.3 | i
O=C(NCc1noc2ccccc12)Nc1ccc(F)c(Cl)c1 | 0.88 | i
Cc1cc(NS(=O)(=O)c2cc(-c3ccc(=O)n(-c4c(C)noc4C)n3)ccc2C)no1 | 0.62 | i
CCOc1ccccc1C1C2=C(CC(C)(C)CC2=O)Nc2ccccc2N1C(=O)c1ccccc1 (stereo not given) | -0.05 | i
COc1ccc(C(=O)Nc2ccc3c(c2)C(=O)N(C)C2=NCCN23)cc1OC | 0.56 | i
CCCC(=O)N(Cc1nc2nc(C)cc(=O)n2[nH]1)c1ccc(OCC)cc1 | -0.75 | i

Following part:
compound | Choline anaer gr early | Choline anaer gr
Cc1nc(NCC(C)c2ccccc2)c2onc(-c3ccc(Cl)cc3)c2n1 (stereo not given) | 0.51 | i
CCc1nn2c(S(=O)(=O)NC3CCCC3)c(C)nc2s1 | 0.41 | i
COC(=O)c1c(C)oc2ccc(O)c(CN3CCCCC3)c12 | 0.49 | i
CCN1CCN(c2cc(C)nc3nc(CN4CCCCC4C)nn23)CC1 (stereo not given) | 0.48 | i
O=C(COc1ccc(C2Nc3ccccc3S(=O)(=O)N2Cc2ccccc2)cc1)NCc1ccccc1 (stereo not given) | -0.75 | i
Cc1cc(N2CCOCC2)n2nc(C(F)(F)F)c(-c3ccc(Cl)cc3)c2n1 | 1.8 | i
Cn1ccc(C(=O)N2CCCC2c2ccccc2F)n1 (stereo not given) | -0.5 | i
Cc1cc(NCc2ccccn2)n2nc(C(F)(F)F)c(-c3ccccc3Cl)c2n1 | 0.61 | i
O=C(NCc1ccccc1)Nc1cccc(-c2noc(C3CCC3)n2)c1 | -0.73 | i
CCN(C(=O)Cn1cc(S(=O)(=O)Cc2ccc(C)cc2)c2ccccc21)c1ccccc1 | 0.05 | i
